Mtb betalactam: beta-lactam sensitization of Mtb H37Rv | M. tuberculosis H37Rv growth with meropenem, percent inhibition; hits of this screen are not shown here | inhibition, % at 25 µM | 0.27% of 330,000 active | AID 434955;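 active = about 74% or more and at least 40 points above the plate without the antibiotic, then above 30% in a dose series; inconclusive = first-round hits that could not be retested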;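 note: growth measured after seven days incubation then overnight dye step; 0% = bacteria only wells and 100% = bacteria with antibiotic; twin plates without the antibiotic show which effects depend on it; some results filed as inactive read as strong as hits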
* hit, by the source's call; ? = inconclusive.

A first look (two entries):
SMILES	Mtb betalactam
CCN1CCCC1CNC(=O)c1cc(S(=O)(=O)N(C)C)ccc1Cl (stereo not drawn)	-1
O=C(CNC(=O)c1ccc(-c2ccccc2)cc1)Nc1cccc(CO)c1	2

The list itself (from the top)
SMILES	Mtb betalactam
CCN1CCCC1CNC(=O)c1cc(S(=O)(=O)N(C)C)ccc1Cl (stereo not drawn)	-1
O=C(CNC(=O)c1ccc(-c2ccccc2)cc1)Nc1cccc(CO)c1	2
Cc1c(Cl)cnc(NC(=O)COC(=O)CNC(=O)c2ccccc2)c1Cl	-12
Cc1ccc(NC(=O)C2=COCCO2)cc1S(=O)(=O)N1CCOCC1	-5
CCOc1ccccc1NC(=O)COc1cccnc1[N+](=O)[O-]	4
O=C(COC(=O)c1cccnc1Cl)Nc1cc(S(=O)(=O)N2CCOCC2)ccc1Cl	-6
CCN(CC)c1ccc(NC(=O)CN2C(=O)NC3(CCc4ccccc43)C2=O)cc1 (stereo not drawn)	-2
Cn1c(-c2ccc(F)c(F)c2)cc2onc(-c3ccccc3)c2c1=O	-6
COC(=O)c1ccc(CSc2ccc(S(=O)(=O)N3CCCCC3)cn2)cc1	1
Cc1ccc(S(=O)(=O)N2CCCCC2)cc1NS(=O)(=O)c1ccccc1F	-6
O=C(CSc1nccn1-c1cccc(F)c1)NC1CCCC1	-5
Cc1ccc(S(=O)(=O)N2CCC(C(=O)OCC(=O)NC(C)c3ccc(F)cc3)CC2)cc1C (stereo not drawn)	0
O=S(=O)(c1ccc2oc(=S)[nH]c2c1)N1CCOCC1	20
COc1cccc(CC(=O)Nc2ccc(S(=O)(=O)N3CCCCC3)cc2)c1	-1
COc1ccc(NC(=O)COC(=O)CCc2nc3ccccc3c(=O)[nH]2)c(OC)c1	-12
Cc1cnc(C(=O)OCC(=O)N2C(C)CCCC2C)cn1 (stereo not drawn)	-7
CC(=O)Nc1ccc(C2=CC(=O)C[C@H](c3ccc4c(c3)OCO4)C2)cc1	16
COc1ccc(C(=O)c2ccc3oc(-c4ccc(OC)cc4)c(-c4ccc(O)cc4)c3c2)cc1	14
O=S(=O)(c1c(F)cccc1F)N1CCCC2CCCCC21 (stereo not drawn)	4
O=C(Nc1ccc2c(c1)OCO2)[C@@H]1CCCN1S(=O)(=O)c1cccc2cccnc12	-10
CC(Oc1cccc(Br)c1)C(=O)NNC(=O)CCS(=O)(=O)c1ccccc1 (stereo not drawn)	2
CCOc1ccc(NC(=O)CCc2c(C)noc2C)cc1OC	-9
Cc1cccc(NC(=O)CN2CCN(C(=O)c3c(C)nn(Cc4ccccc4)c3C)CC2)c1C	-2
CC(Oc1ccc2c(-c3ccccc3)cc(=O)oc2c1)C(=O)NC(Cc1c[nH]c2ccccc12)C(=O)O (stereo not drawn)	-7

Some of the entries so far, field by field.
CCN1CCCC1CNC(=O)c1cc(S(=O)(=O)N(C)C)ccc1Cl (stereo not drawn)
  Mtb betalactam = -1
O=C(CNC(=O)c1ccc(-c2ccccc2)cc1)Nc1cccc(CO)c1
  Mtb betalactam = 2
Cc1c(Cl)cnc(NC(=O)COC(=O)CNC(=O)c2ccccc2)c1Cl
  Mtb betalactam = -12
Cc1ccc(NC(=O)C2=COCCO2)cc1S(=O)(=O)N1CCOCC1
  Mtb betalactam = -5

(list continues)
SMILES	Mtb betalactam
COCCN(C(=O)C1CCCO1)c1c(N)n(CC(C)C)c(=O)[nH]c1=O (stereo not drawn)	-4
Cc1ccc(S(=O)(=O)NCC(=O)OCC(=O)N(C)C2CCCCC2)cc1	-2
O=C1CN(C(=O)N[C@@H](Cc2ccccc2)C(=O)N[C@@H](Cc2ccccc2)C(=O)O)c2ccccc2N1	-4
O=C(CSc1ncnc2sccc12)N1CCN(C(=O)c2cccs2)CC1	-2
O=C(CN1CCN(S(=O)(=O)c2cccc(Cl)c2)CC1)NCC1(N2CCOCC2)CCCCC1	2
C#CCOCCOCCOCCNc1nc(N2CCN(C(=O)C([C@@H](C)O)n3cc([C@@H](N)CCCCN)nn3)CC2)nc(N2CCN(C(=O)[C@H](CCCCN)n3cc([C@@H](N)[C@H](C)CC)nn3)CC2)n1 (stereo partly drawn)	4
N#CCCN(C(=O)CSc1nnc(-c2ccncc2)n1C1CC1)c1ccccc1	-3
CNC(C)C(=O)NC(C(=O)N1CCCC1C(=O)NC1CCCc2ccccc21)C(C)C (stereo not drawn)	0
CC[C@@H](CC1CCCCC1)C(=O)N(Cc1ccccc1)c1ccccc1	4
CC(C)NC(=O)Nc1ccc2c(c1)C(=O)N([C@@H](C)CO)C[C@@H](C)[C@@H](CN(C)S(=O)(=O)c1ccc(F)cc1)O2	-4
COc1ccc(C)cc1-n1nnnc1SCC(=O)NC1CCS(=O)(=O)C1 (stereo not drawn)	35
CNC[C@H]1Oc2ccc(NC(=O)Nc3ccccc3)cc2CC(=O)N([C@H](C)CO)C[C@H]1C	-3
Cc1ccc(C(=O)OCC(=O)N2C(C)CCCC2C)s1 (stereo not drawn)	0
Cc1ccc(CNC(=O)c2ccccc2NC(=O)CN2CCN(C)CC2)cc1	6
Cc1ccc(C(=O)NC2CC2)cc1S(=O)(=O)N1CCOCC1	-2
NCC(O)c1cc(O)c(O)cc1F (stereo not drawn)	5
CCCCCn1c(=O)[nH]c2cc(C(=O)N3CCN(c4ccccc4F)CC3)ccc2c1=O	2
NC(=O)c1ccc(NC(=O)COC(=O)C2CCN(S(=O)(=O)c3cccs3)CC2)cc1	-2
CC(=O)Nc1ccc(NC(=O)COC(=O)/C=C/c2ccc3c(c2)OCO3)cc1	-5
Oc1cc(O)cc(/C=C/c2ccc(O)cc2O)c1	-5
O=C(c1ccc(Cl)cc1Cl)N1CCc2ccccc21	-8
C=CCC[C@@H](Cc1ccc(F)cc1)C(=O)OC[C@@H](Cc1c[nH]c2ccccc12)NC(=O)[C@H](CC=C)CC(=O)NCCO	15
C=CC[C@@H](CC(=O)NCCO)C(=O)N[C@@H](COC(=O)[C@@H](CC=C)Cc1ccc(F)cc1)Cc1c[nH]c2ccccc12	2
CC(C)N1CCN(c2ccc(OC[C@H]3CO[C@](Cn4cncn4)(c4ccc(Cl)cc4Cl)O3)cc2)CC1	70
CN(Cc1ccccc1)C(=O)COC(=O)c1ccc[nH]c1=O	0
O=C(NCc1ccc(Cl)cc1)C1CCC(=O)N(C2CCCCCC2)C1 (stereo not drawn)	?
O=C(CCCOc1ccccc1)Nc1ccc(Cl)c(S(=O)(=O)N2CCOCC2)c1	1
CCN1C[C@@H]2[C@@H]3C(=O)N(C)C(=O)[C@@H]3[C@](CC)(C1=O)N2C(=O)c1ccc(C(C)(C)C)cc1	-2
O=C1NC(Cc2ccccc2)c2nc3cc(F)ccc3c(=O)n2-c2ccccc21 (stereo not drawn)	8
COc1cc(OC)cc(-c2c(-c3ccsc3)c3cc(Br)ccc3n2C)c1	-1
CCCc1nc2nc(C)c(NS(=O)(=O)c3ccc4c(c3)CCCC4)c(=O)n2[nH]1	1
COc1ccc(CC(=O)Nc2ccc(C)c(S(=O)(=O)N3CCCCCC3)c2)cc1	5
CNC[C@H]1Oc2c(NC(=O)c3ccc(-c4nccs4)cc3)cccc2C(=O)N([C@@H](C)CO)C[C@@H]1C	5
CCOC(=O)c1c(C)[nH]c(C(=O)OCC(=O)NCc2ccc(OC)c(OC)c2)c1C	9
O=C(COC(=O)Cc1c[nH]c2ccccc12)Nc1cc(S(=O)(=O)N2CCOCC2)ccc1Cl	-4
COc1ccc(C#Cc2c(-c3ccccc3)n(-c3ccccc3)c3ccc(CO)cc23)cc1	2
C[C@]12CCC(=O)C=C1CCC1C2CC[C@@]2(C)C1CC[C@]2(C)O (stereo partly drawn)	1
Cc1cccc(C(=O)NCCC(=O)N2CCc3ccccc3C2)c1	1
Cc1nnc(SC(C)C(=O)N(C)C2CCCCC2)n1N (stereo not drawn)	-6
CN(CC(=O)Nc1ccc(Cl)c(Cl)c1)C(=O)CNC(=O)Cc1ccccc1	-4
COc1ccc(C(=O)NNC(=S)NC(=O)c2ccc(Cl)cc2)cc1	96
CC(C(=O)N1CCCC1)N1CCN(S(=O)(=O)c2ccc(C(C)(C)C)cc2)CC1 (stereo not drawn)	-1
CCOC(=O)[C@H]1[C@H]2COc3ccc(C)cc3[C@@H]2N2C(=O)[C@@H](CO)NC(=O)[C@@]12C	-8
Cc1cccc(NC(=O)CN(CC2CCCO2)C(=O)c2oc3ccc(F)cc3c2C)c1C (stereo not drawn)	4
CSc1ccc(/C=C/C(=O)OCC(=O)NCC2CCCO2)cc1 (stereo not drawn)	3
C[C@H](CO)N1C[C@H](C)[C@@H](CN(C)C(=O)Nc2ccccc2)Oc2c(NC(=O)Nc3ccc4c(c3)OCO4)cccc2C1=O	3
COc1ccc(S(=O)(=O)N2CCOCC2)cc1NC(=O)c1ccc(OCC(C)C)c(OC)c1	-5
COc1ccc(NC(=O)CSc2sc3c(O)cc(=O)[nH]c3c2C#N)c(OC)c1	4
CCNC(=O)N(C)C[C@H]1N[C@@](Cc2ccccc2)(C(=O)OC)[C@H]2C(=O)N(C)C(=O)[C@@H]12	3
CCc1cc(C(=O)Nc2nnc(C3CC3)s2)sc1C	-2
CCCc1cc(C(=O)OCC(=O)N2CCN(c3ccc(OC)cc3)CC2)sc1C	99
CC(C)CCCN1C(N(C)C)=NC[C@@H]1C	-3
CCNc1c(NS(=O)(=O)c2ccc(Cl)s2)c(=O)oc2ccccc12	21
C[C@H]1COC(=O)[C@@H](Cc2ccc(F)cc2)CC/C=C/C[C@H](CC(=O)N(CCO)Cc2ccccc2)C(=O)N1	-9
Nc1nc(SCC(=O)Nc2cccc(F)c2)n[nH]1	2
Cc1ccc(S(=O)(=O)N2CCN(C(=O)c3cc4c(s3)CCCC4)CC2)cc1	-4
O=C(COC(=O)C1CC2C=CC1C2)Nc1c(Br)cc([N+](=O)[O-])cc1Br (stereo not drawn)	-13
CCOc1ccc(/C=C(\C#N)C(=O)NC2CC2)c(OCC)c1	-3
O=S(=O)(Nc1ccc(Br)cn1)c1ccc2ccccc2c1	-5
CN(CC(=O)Nc1cccc(F)c1)C(=O)c1cn2ccccc2n1	-4

Five compounds drawn at random from the list so far:
SMILES	Mtb betalactam
Cc1ccc(S(=O)(=O)NCC(=O)OCC(=O)N(C)C2CCCCC2)cc1	-2
O=C1NC(Cc2ccccc2)c2nc3cc(F)ccc3c(=O)n2-c2ccccc21 (stereo not drawn)	8
Cc1cccc(NC(=O)CN(CC2CCCO2)C(=O)c2oc3ccc(F)cc3c2C)c1C (stereo not drawn)	4
COc1ccc(C(=O)c2ccc3oc(-c4ccc(OC)cc4)c(-c4ccc(O)cc4)c3c2)cc1	14
CCN(CC)c1ccc(NC(=O)CN2C(=O)NC3(CCc4ccccc43)C2=O)cc1 (stereo not drawn)	-2

The listing continues:
SMILES	Mtb betalactam
Cc1cccc(NC(=O)c2ccccc2SCc2ccc(F)cc2)n1	5
C[C@]12CCC3C(CC[C@H]4C[C@H](O)CC[C@]34C)C1C[C@H](O)[C@@H]2O (stereo partly drawn)	0
CC1CCCCN1C(=O)COC(=O)c1ccc2ccccc2n1 (stereo not drawn)	32
COc1ccc(S(=O)(=O)N(C)C[C@H]2Oc3ccc(NC(=O)C4CC4)cc3C(=O)N([C@H](C)CO)C[C@@H]2C)cc1	-1
Cc1ccc(N2C(=O)N3[C@@H]4c5ccccc5OC[C@@H]4[C@@H](c4ccccc4)[C@@]3(C)C2=O)cc1	1
COc1cccc(CC(=O)Nc2ccc3c(c2)OC2(CCCC2)O3)c1	-2
COc1cccc(NC(=O)CN(C)C(=O)c2ccccc2Sc2ccccc2C#N)c1	-17
COc1ccc(S(=O)(=O)N2CCOCC2)cc1NC(=O)c1cc(=O)[nH]c2ccccc12	-2
C[C@H](CO)N1C[C@H](C)[C@H](CN(C)C(=O)Nc2ccc(C(F)(F)F)cc2)Oc2c(NC(=O)c3ccncc3)cccc2C1=O	-13
CC(OC(=O)c1cc(=O)[nH]c2ccccc12)C(=O)Nc1ccc(Cl)cn1 (stereo not drawn)	3
CCN(CC(=O)Nc1ccc(NC(C)=O)cc1)C(=O)C1CCCC1	5
CCC(C(=O)n1cccc1C#N)c1ccccc1C (stereo not drawn)	7
COc1cccc(CN(C)CC(=O)Nc2ccccc2C(=O)NC2CC2)c1	-3
COc1ccccc1C(CNC(=O)c1ccc(S(=O)(=O)N2CCCCC2)cc1)N(C)C (stereo not drawn)	-13
COc1cccc(NC(=O)CN(C)C(=O)c2cccnc2Nc2cccc(C(F)(F)F)c2)c1	98
COc1ccccc1N(CC(=O)N/N=C(\C)c1ccc(F)cc1)S(=O)(=O)c1ccccc1	3
CC1CCCC(NC(=O)CN(C)CC(=O)Nc2cccc(F)c2)C1C (stereo not drawn)	-10
C=CC[C@@H](CC(=O)N(CCO)Cc1ccccc1)C(=O)N[C@H](C)COC(=O)[C@@H](CC=C)Cc1ccc(F)cc1	2
CCN(C[C@H]1N[C@@](CC)(C(=O)OC)[C@H]2C(=O)N(Cc3ccccc3)C(=O)[C@@H]12)S(=O)(=O)c1ccc(F)cc1	-4
Cc1cc(C)c(OCC(=O)OCC(=O)NNC(=O)c2ccccc2F)c(C)c1	14
O=[N+]([O-])c1ccccc1Cl	6
Cc1cc(C(C)(C)C)cc(C)c1CCNC(=O)c1ccc[n+]([O-])c1	-4
O=C1NC[C@@H](c2ccccc2)OC(=O)[C@@H](Cc2ccc(F)cc2)C/C=C\C[C@@H]1CC(=O)N(CCO)Cc1ccccc1	-2
CCOC(=O)[C@H]1[C@H]2COc3ccc(C)cc3[C@@H]2N2C(=O)c3ccc(F)cc3NC(=O)[C@@]12C	-3
Cc1cc2c(c(C)c1CCO)C(=O)[C@H](C)C2	-3
O=C(NCCOc1ccc(Cl)cc1)c1cccc(S(=O)(=O)N2CCCC2)c1	6
CN(c1ccccc1)S(=O)(=O)c1cccc(C(=O)OCC(=O)Nc2ccc(C(N)=O)cc2)c1	2
COc1ccc(C(=O)NCC(=O)OCC(=O)NC2CCCCCC2)cc1	0

The list is partial; rates above refer to the full screens.
